# SARS PLP yeast: blocks SARS-CoV papain-like protease in a yeast assay | S. cerevisiae expressing SARS-CoV PLpro, growth rescue; control for the full effect not named in the record | Potency, µM (titrated, usually from 32.9 µM), for the others: at the highest dose activity, positive = growth rescue | hit rate 0.19% among 330,000; active means well fitted rising curve with a large enough effect; inconclusive means small, poorly fitted or top-dose-only effect; inactive means no such curve, though single readings can be large or run the other way; further: 0% is about no effect; nearly all actives have a fitted effect of over 55% in size; growth read by luminescence after 48 h
# RE007 growth inh: less growth of the S. pombe RE007 Vpr strain; S. pombe RE007 Vpr strain, BacTiter-Glo ATP luminescence, 24 h; control for the full effect not named in the record; Potency, µM (top dose mostly 92.2 µM), for the others: at the highest dose activity change, negative = less growth; hit rate 0.21% among 360,000; AID 651644; active = well fitted falling curve with a large enough effect; inconclusive = small, poorly fitted or top-dose-only effect; inactive = no such curve, though single readings can be large or run the other way;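 further: on the % scale 0 is the no-effect control and ±100 the full control effect; nearly all actives have a fitted effect of over 50% in size; the assay follows cell death caused by Vpr and the record does not say whether a fall means rescue or toxicity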
#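 Fission yeast strain RE007, carrying one chromosomally integrated HIV-1 vpr copy, was seeded at OD 0.01 in PMG+AL medium with 23 nL pinned compound. After 24 h at 30 °C and 99% humidity, viability was read by BacTiter-Glo luminescence.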
# Cruzain Triton: blocks cruzain activity in presence of Triton detergent; P25779; purified cruzain, Z-FR-AMC fluorescence, 0.01% Triton; Potency, µM, inactives show max response, negative = inhibition, most hits filed as inhibitors; hit rate 0.43% among 200,000; AID 1478;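 further: plate controls were neutral wells for no effect and buffer without enzyme for full effect; nearly all actives have a fitted effect of over 40% in size; top concentration of the series not given in the record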
# Target sequence (P25779 123-467 limits assumed): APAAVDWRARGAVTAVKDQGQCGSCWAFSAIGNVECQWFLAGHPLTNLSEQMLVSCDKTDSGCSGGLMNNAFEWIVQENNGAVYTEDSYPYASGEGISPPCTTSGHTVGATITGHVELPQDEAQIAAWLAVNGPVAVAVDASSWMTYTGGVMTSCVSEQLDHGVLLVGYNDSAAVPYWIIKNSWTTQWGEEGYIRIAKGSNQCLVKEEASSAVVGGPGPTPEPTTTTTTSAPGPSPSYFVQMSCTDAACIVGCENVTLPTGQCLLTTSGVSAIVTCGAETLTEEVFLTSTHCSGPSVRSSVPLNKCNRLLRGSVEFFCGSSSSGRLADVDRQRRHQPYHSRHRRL
#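 Enzyme 1.5 nM, Z-FR-AMC 2 uM, NaOAc 100 mM pH 5.5, DTT 5 mM, Triton X-100 0.01%; 15 min RT compound preincubation; kinetic ex360/em450, 60 s delta.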
# 2A StopGo: lowers the luciferase signal of an FMDV 2A StopGo reporter; hit rate 1.2% among 410,000; Potency, µM (doses to about 57.9 µM), inactives show at the top dose signal change, negative = less light; human cells with a luciferase reporter of 2A StopGo recoding; control for the full effect not named in the record; active = well fitted falling curve with a large enough effect; inconclusive = small, poorly fitted or top-dose-only effect; inactive = no such curve, though single readings can be large or run the other way; tested in HEK293T cells; further: on the % scale 0 is the no-effect control and ±100 the full control effect; nearly all actives have a fitted effect of over 45% in size; luciferase light after 4 h
# Cruzain inh noDet: blocks cruzain activity in detergent-free assay. P25779. purified cruzain, Z-FR-AMC fluorescence, no detergent. Potency, µM, inactives show max response, negative = inhibition, most hits filed as inhibitors. hit rate 2.3% among 200,000. AID 1476;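 further: plate controls were enzyme without inhibitor for no effect and buffer without enzyme for full effect; nearly all actives have a fitted effect of over 40% in size; top concentration of the series not given in the record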
#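 Purified cruzain at 1.5 nM, pre-incubated 15 min with compound at room temperature in 100 mM sodium acetate pH 5.5, 5 mM DTT, 0.00005% Triton X-100. Reaction started with 2 uM Z-FR-AMC; AMC fluorescence increase over 60 s gives rate.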
# NS1 inh: inhibitors of influenza NS1 protein function; S. cerevisiae slowed by influenza A NS1, growth recovery by OD600; AID 2326; hit rate 0.4% among 270,000; Potency, µM (highest dose often 46.1 µM), for the others: top-dose activity, positive = more growth; active means well fitted rising curve with a large enough effect; inconclusive means small, poorly fitted or top-dose-only effect; inactive means no such curve, though single readings can be large or run the other way; further: nearly all actives have a fitted effect of over 50% in size
#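 Read-out: OD600 growth recovery of NS1-expressing budding yeast. Cells grown overnight at 30C in -URA glucose medium, washed, resuspended and diluted 1:100 in 2% galactose assay medium, pH 6.0. Same strain lacking NS1 served as positive control.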
# MARV entry inh: blocks Marburg virus binding to or entry into cells | hit rate 1.8% among 300,000 | Marburg virus pseudotyped entry inhibition, cell reporter; control for the full effect not named in the record; about a third of the inactives were read at about 46 µM | Potency, µM (series often up to 37.8 µM), without a hit: at the highest dose activity change, negative = inhibition, usual class: inhibitors; active = well fitted inhibition curve with a large enough effect; inconclusive = small, poorly fitted or top-dose-only effect, or effect the other way; inactive = flat fitted curve, though single readings scatter; tested in HEK293 cells; about a fifth of its hits are not listed in these tables; further: on the % scale 0 is the no-effect control and ±100 the full control effect; luciferase read-out
# LASV entry inh: blocks Lassa virus binding to or entry into cells | Lassa virus pseudotype entry inhibition, cell reporter; control for the full effect not named in the record | Potency, µM (series often up to 37.9 µM), for the others: top-dose activity change, negative = inhibition, usual class: inhibitors | hit rate 1.2% among 300,000 | AID 540256; active means well fitted inhibition curve with a large enough effect; inconclusive means small, poorly fitted or top-dose-only effect, or effect the other way; inactive means flat fitted curve, though single readings scatter; tested in HEK293 cells; further: on the % scale 0 is the no-effect control and ±100 the full control effect; nearly all actives have a fitted effect of over 50% in size; luciferase read-out
# * hit, by the source's call; ? = inconclusive; . = not tested or not shown; & = joins results of further samples; [ ] = another dose, or the depositor's remark. Unless noted, the call rests on the fitted dose curve; in most records, active means well fitted curve in the direction sought with a large enough effect; inconclusive means small, poorly fitted or top-dose-only effect, or another doubt; inactive means no such curve, though single readings can be large; an effect the other way counts as inactive or inconclusive. Potency means the concentration at half of the fitted maximal effect.
SMILES,SARS PLP yeast,RE007 growth inh,Cruzain Triton,2A StopGo,Cruzain inh noDet,NS1 inh,MARV entry inh,LASV entry inh
CCOC(=O)c1ccc2nc(C)c3c(c2c1)OC(C)C3 (stereo not given),0.4%,-12.8%,7.9%,-22.4%,3.1%,-8.2%,-5.0%,-26.0%
O=C(c1cc2cc(Cl)ccc2oc1=O)N1CCCCCCC1,4.2%,-1.7%,.,12.1%,.,2.8%,.,.
COc1ccc(S(=O)(=O)N(C)CC(=O)N2CCN(c3ccc(F)cc3)CC2)cc1OC,1.5%,11.6%,4.7%,-24.4%,?,-45.1%,4.4%,-17.5%
Cc1ccc2oc(-c3ccco3)cc(=O)c2c1,-2.3%,-5.2%,.,0.0%,.,-52.0%,-1.9%[46.1 µM],-29.8%
Cc1cc(SCC(=O)Nc2nsc(-c3ccc(C(C)(C)C)cc3)n2)nc2ccccc12,.,.,-2.1%,10.0%,?,.,22.9%[46.1 µM],-22.9%[46.1 µM]
COc1ccc(NC(=O)Cn2cnc3ccccc3c2=O)cc1OC,-0.1%,-13.2%,.,6.1%,.,5.9%,.,.
O=C(c1ccco1)N1CCN(Cc2ccccc2F)CC1,3.4%,13.0%,.,10.6%,.,7.1%,-0.2%[46.1 µM],9.7%[46.1 µM]
CC1CCN(S(=O)(=O)c2ccc(NC(=O)CN3C(=O)NC(C)(c4ccccc4)C3=O)cc2)CC1 (stereo not given),-4.5%,6.3%,.,-18.4%,.,.,?,-9.5%
COc1ccc(C(=O)N[C@H](C(=O)OCC(=O)NC(=O)c2cccn2C)C(C)C)cc1,-13.1%,2.1%,-4.1%,0.0%,-5.7%,-13.0%,-9.0%,?
O=[N+]([O-])c1ccc(N2CCN(c3cccc(Cl)c3)CC2)nc1,0.4%,-4.4%,.,-6.6%,.,1.8%,.,.
COc1ccccc1NC(=S)NC(=O)Cc1ccccc1,.,4.5%,.,22.0%,.,.,16.5%[46.1 µM],-3.6%
Cc1ccc(O)c(NC(=S)NC(=O)CC(C)C)c1,19.1%,-7.2%,-3.7%,34.9%[activator],-4.6%,-1.8%,3.5%,?
Cc1cc(C)n(CC(C)C(=O)O)n1 (stereo not given),0.1%,-26.7%,.,-7.4%,.,-2.1%,-6.0%[46.1 µM],4.3%
CCOC(=O)c1c(-c2ccc(C)cc2)csc1NC(=O)c1cc(=O)c2ccc(C)cc2o1,.,.,-0.2%,-10.9%,-1.8%,.,34.4%[46.1 µM],-3.6%[46.1 µM]
CC(NC(=O)COC(=O)c1ccc2ccccc2n1)c1ccccc1 (stereo not given),1.0%,-3.1%,.,-5.9%,.,.,-0.2%,8.4%
O=C(COC(=O)/C(=C/c1cccs1)c1cccs1)NC(c1ccccc1)c1ccccc1,-1.9%,17.0%,-3.6%,-29.3%,?,-38.8%,?,?
CN(C)c1nc(N)nc(Cn2ccnc2)n1,5.5%,-10.5%,5.8%,-14.3%,-3.1%,-13.5%,10.7%,0.4%
CCOC(=O)c1ccccc1N/C=C1\CCCC1=O,-8.1%,-3.0%,-11.6%,1.1%,-14.8%,-16.2%,?,-17.9%
Cc1ccc2nc(-c3ccc(N4CCOCC4)cc3)c(Nc3ccccc3C)n2c1,.,.,-15.3%,0.0%,3.3%,.,?,?
CCOc1cc(/C=C(\C#N)c2[nH]nc(N)c2C#N)ccc1O,16.4%,-4.8%,-9.3%,-1.6%,-18.1%,7.5%,?,?

# The final 3 entries of the section above come first, to join the parts.
SMILES,SARS PLP yeast,RE007 growth inh,Cruzain Triton,2A StopGo,Cruzain inh noDet,NS1 inh,MARV entry inh,LASV entry inh
CCOC(=O)c1ccccc1N/C=C1\CCCC1=O,-8.1%,-3.0%,-11.6%,1.1%,-14.8%,-16.2%,?,-17.9%
Cc1ccc2nc(-c3ccc(N4CCOCC4)cc3)c(Nc3ccccc3C)n2c1,.,.,-15.3%,0.0%,3.3%,.,?,?
CCOc1cc(/C=C(\C#N)c2[nH]nc(N)c2C#N)ccc1O,16.4%,-4.8%,-9.3%,-1.6%,-18.1%,7.5%,?,?
Cc1c(Cl)cccc1Nc1nc(N)nc(CSc2ncccn2)n1,-0.3%,-13.1%,-2.0%,56.4%[activator],3.0%,-7.5%,-18.7%,2.8%
CCOc1ccc(Oc2ccc(-c3nnc(-c4ccccc4)o3)cc2[N+](=O)[O-])cc1,-1.0%,8.9%,-9.4%,22.9%,-19.9%,7.2%,21.0%,-3.2%
Cc1ccccc1-c1nc2sc(-c3ccccc3)cc2c(=O)o1,1.8%,2.6%,-0.3%,5.7%,-22.9%,2.0%,-0.2%,6.0%
COc1cc(NS(=O)(=O)c2ccc(NC(=S)NC(=O)c3sc4ccccc4c3Cl)cc2)nc(OC)n1,-4.7%,?,-5.5%,24.8%,-7.0%,14.3%,?,7.9%
Cc1ncc([N+](=O)[O-])n1Cc1ccc(F)cc1,2.1%,1.3%,.,4.1%,.,.,?,6.2%
COc1cc(C2NC(=O)NC(C)=C2C(=O)OC2CCCCC2)cc(Cl)c1O (stereo not given),2.4%,-9.0%,.,-10.9%,.,3.4%,?,?
COC(=O)C1=C(Cn2cnc3ccccc32)NC(=O)NC1c1cc(C)ccc1C (stereo not given),17.3%,15.4%,-5.0%,?,-11.0%,-0.6%,-21.4%,-27.7%
COc1ccc(/C=C/C(=O)OCC(=O)NC(=O)NC(C)(C)C)cc1,1.4%,0.1%,.,-1.1%,.,.,4.2%[14.2 µM],-12.0%
CCc1ccc2c(-c3cccc(Cl)c3)nc(=O)n(CC)c2n1,.,.,-8.3%,-5.4%,-5.5%,.,-12.6%&-12.6%,?
CCn1cc(CNC(=O)/C=C/c2ccc([N+](=O)[O-])cc2)cn1,5.3%,0.0%,-4.0%,0.7%,-3.1%,-6.5%,-1.1%,0.1%
COc1cc(OC)c2c(-c3ccccc3)cc(=O)oc2c1C(CC(=O)N1CCCC1)c1ccc2c(c1)OCO2 (stereo not given),-3.6%,-18.6%,.,31.9%[activator],.,-14.4%,.,.
Cc1cccc(CC(=O)Nc2cccnc2)c1,1.8%,12.0%,.,10.6%,.,0.2%,.,.
O=C(OCC(=O)c1ccc[nH]1)c1ccc(S(=O)(=O)N2CCCCCC2)cc1,-2.1%,2.6%,-11.0%,-21.0%,9.0%,1.5%,6.1%,2.3%
O=C(/C=C/c1c(Cl)nc2ccccn12)Nc1ccc(F)cc1,-2.5%,8.2%,.,17.5%,.,.,6.6%[46.1 µM],?
Cc1ccc2nc(N(CCCN(C)C)C(=O)c3cc4ccccc4oc3=O)sc2c1,3.9%,3.6%,-3.9%,23.0%,-0.8%,4.6%,?,14.7%
Cc1ccc(/C=C/C(=O)NC2CCCCCCC2)o1,-74.7%,-91.4%,22.4µM*,39.4%[activator],20µM*,-45.4%,6.8%,1.4%
COc1ccc(C(=O)OC(C)C(=O)NC2CCCCC2C)cc1S(=O)(=O)N1CCOCC1 (stereo not given),2.4%,-11.9%,.,-7.2%,.,.,-13.2%,11.8%
O=C(CC(=O)c1ccncc1)c1ccccc1,.,?,-2.7%,8.1%,-0.6%,-39.8%,2.9%,-24.7%[46.1 µM]
CCc1ccccc1N(C(=O)c1ccco1)C(C(=O)NC1CCCC1)c1cccnc1 (stereo not given),2.9%,0.3%,.,-2.0%,.,7.6%,?,?
Cc1ccc(OCc2ccccc2Br)c([N+](=O)[O-])n1,-8.5%,-23.1%,.,21.5%,.,-30.2%,-7.7%[46.1 µM],7.0%[46.1 µM]
CCN(CC(O)COCc1ccc(Cl)cc1)C1CCCCC1 (stereo not given),0.5%,-11.3%,.,-23.4%,.,-2.0%,?,-46.7%
COc1cccc(NC(=O)CSc2nc3c(c(=O)n2C)SC(C)C3)c1 (stereo not given),-15.1%,-3.8%,-3.5%,-22.8%,0.5%,-44.5%,?,12.0%
CCOC(=O)c1c(C)[nH]c(C(=O)COC(=O)CNC(=O)c2ccc(Cl)cc2)c1C,5.9%,16.8%,?,-12.5%,-6.4%,-1.2%,?,0.7%
CCOC(=O)N1CCN(Cc2nc3cc(NC(=O)c4cccs4)ccc3n2C)CC1,-2.5%,-10.1%,.,?,.,-33.6%,?,0.3%
COc1ccc(C(=S)N2CCOCC2)cc1OC(=O)c1cc([N+](=O)[O-])c(C)c([N+](=O)[O-])c1,2.1%,2.8%,-3.5%,-8.6%,-25.7%,12.5%,2.7%,?
O=C(CSc1ccc(Cl)cc1)N1N=CCC1c1ccccc1 (stereo not given),-5.3%,18.7%,.,-11.3%,.,-38.0%,-39.0%,-7.4%
Cc1cc(C)c(S(=O)(=O)NCc2ccc3c(c2)OCO3)c(C)c1,-14.0%,13.0%,.,41.8%[activator],.,8.9%,-10.3%,12.6%
C=CCNC(=O)c1csc(-c2ccccc2)n1,-8.1%,-13.4%,5.2%,27.9%,-4.8%,-12.7%,-0.1%,?
COc1cc(CN2CCN(C(=O)c3cccc4ccccc34)CC2)cc(OC)c1OC,0.7%,1.1%,.,-13.5%,.,0.0%,.,.
COc1ccccc1Sc1nc(-c2ccccc2)ncc1OC,-7.9%,-2.0%,.,-20.1%,.,.,?,-1.2%[46.1 µM]
CCOc1ccccc1NC(=O)C(=O)CC(=O)c1cccc(OC)c1,-0.8%,-5.4%,.,-24.4%,.,-5.7%,.,.
COCCCn1c(SCC(=O)Nc2cccc(C(=O)OC)c2)nnc1-c1ccncc1,-7.7%,11.4%,6.4%,-7.8%,6.7%,5.0%,-0.2%&19.7%,9.0%
O=C(CN(Cc1ccc(F)cc1)C(=O)c1csnn1)NCc1ccccc1,0.8%,-4.7%,.,10.0%,.,3.5%,?,?
CN(C)S(=O)(=O)Oc1ccsc1C(=O)Nc1ccccc1Cl,-9.4%,-13.5%,-5.3%,-22.7%,-3.0%,-9.6%,-12.1%,-8.5%
CC1(C)Cc2c(c(N3CCOCC3)nc3sc4c(NCCN5CCOCC5)nnnc4c23)CS1,1.1%,-2.1%,.,0.0%,.,-0.7%,.,.

# Screens from PubChem BioAssay.
